Vif TR-FRET: HIV-1 Vif–A3G interaction blockers – biochemical, TR-FRET, GST-Vif 1-94, biotin-A3G peptide, dose response retest, primary screen (AID 1117319). TR-FRET GST-Vif / biotin-A3G peptide binding; higher % means a stronger effect; test concentration not given here; strong numbers were not always called active. one-dose inhibition, %; IC50 in µM for titrated hits. 260,000 tested, 0.57% active;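 active means above the screen mean plus three standard deviations and confirmed in dose response; inconclusive means results disagree or hit not tested in dose response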;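 further: Vif residues 1-94 fused to GST binding biotinylated APOBEC3G peptide 110-148; 0% = full assay without inhibitor and 100% = GST in place of GST-Vif; retest series ran down from 100 µM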
T cruzi inh: blocks replication of Trypanosoma cruzi | 300,000 tested, 1.4% active | inhibition, % (concentration not given with the values) | T. cruzi beta-gal in NIH3T3, luminescence, 90 h;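 active means mean inhibition across valid replicates above about 55%, limit read from the data; inconclusive means mean below that limit but half or more replicates reach it; inactive means mean below it, under half of replicates reach it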;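 further: signal also drops with host cell toxicity which is not excluded here; 0% = plate median of DMSO wells and 100% = zero luminescence signal; higher percent means less beta-gal luminescence so fewer parasites; stock transfer was 50 nL into about 50 µL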
AF4-AF9 inh: MLL-AF4/AF9 protein interaction inhibition; P42568; AlphaScreen, biotin-AF4 peptide binding to FLAG-AF9; 350,000 tested, 0.47% active; inhibition, % at 10 µM;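 active means every replicate reaching a set inhibition limit, whatever the replicate mean, cut at about 25% in these data; inconclusive means mean inhibition reaches that limit but some replicates miss it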;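 further: 0% = plate neutral control median and 100% = total signal loss; the record names both 10 and 1 µM as test concentration; the first replicate is given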
Target sequence (P42568 whole entry, looked up): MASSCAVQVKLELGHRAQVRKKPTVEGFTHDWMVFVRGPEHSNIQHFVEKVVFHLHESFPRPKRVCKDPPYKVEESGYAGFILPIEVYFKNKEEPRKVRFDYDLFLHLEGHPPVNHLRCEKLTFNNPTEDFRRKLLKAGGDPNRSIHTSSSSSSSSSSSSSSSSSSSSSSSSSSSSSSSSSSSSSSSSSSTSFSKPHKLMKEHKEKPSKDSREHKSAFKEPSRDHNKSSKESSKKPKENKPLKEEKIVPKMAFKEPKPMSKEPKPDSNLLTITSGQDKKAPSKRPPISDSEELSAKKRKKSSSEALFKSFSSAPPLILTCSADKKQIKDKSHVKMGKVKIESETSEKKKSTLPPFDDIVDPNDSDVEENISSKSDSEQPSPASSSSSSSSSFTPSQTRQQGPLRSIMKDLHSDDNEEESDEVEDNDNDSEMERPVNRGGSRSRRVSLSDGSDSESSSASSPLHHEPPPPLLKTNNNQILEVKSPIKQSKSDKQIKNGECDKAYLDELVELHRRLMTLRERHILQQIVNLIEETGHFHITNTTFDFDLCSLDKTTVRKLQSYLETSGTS
Bfl-1 A1 inh: inhibitors of the anti-apoptotic protein A1, read as caspase activation; MEF A1-2A-BIM cells, Caspase-Glo 3/7 luminescence, 3 h; percent of clofoctol response, vehicle zero; caspase activation, % (concentration not given with the values); AID 2462; 330,000 tested, 0.066% active;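 active means over half of replicate activation scores above 10%, or exactly half above 10 with the replicate mean above 10; inconclusive means replicate mean below 10 yet half the replicates above 10; inactive means over half of replicates below 10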;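 further: wells of about 30 µL received 50 nL stock; many hits fall short of the cut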
RanGTP-Impb inh: inhibitors of RanGTP-importin-beta interaction, primary screen, biochemical, FRET, CFP-Ran, YFP-importin-beta, homogeneous; cell-free CFP-Ran/YFP-importin-beta FRET ratio; inhibition, % (concentration not given with the values); 300,000 tested, 1.1% active;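 active means most replicates above 15%; inconclusive means exactly half above 15%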;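 further: 0% = DMSO wells and 100% = Ran loaded with GDP instead of GTP; wells of about 40 µL received 100 nL stock; the first replicate is given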
Beta cell apopt: beta cell apoptosis inhibition; INS-1E cytokine-induced death, ATP luminescence, 48 h; percent of positive-control rescue, neutral wells zero; 300,000 tested, 0.8% active; protection from apoptosis, % (no concentration beside the values); AID 435005;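 active means all replicates at 75% or more, or half of them and the mean; inconclusive means half reach 75% but not the mean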;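 further: 0% = cytokine-treated negative control wells and 100% = positive control rescue; higher means more ATP so stronger rescue from cytokine killing; wells of about 40 µL received 100 nL stock; the first replicate is given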
rRNA inh HTS: selective bacterial rRNA inhibition in E. coli; E. coli WT GFP vs humanized-ribosome RFP mutants, fluorescence, 24 h; active compounds read low; DMSO median 0, no signal -100; GFP signal change (wild-type ribosome), % (concentration not given with the values); 350,000 tested, 1.6% active;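 active means significant combined selectivity score with lowered wild-type GFP, culture density cut under 30%, mutant RFP and density less affected; inactive means any of these conditions unmet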; further: one replicate is shown; some compounds called inactive have numbers as strong as hits
Calb FLC: C. albicans growth modulation with fluconazole | C. albicans CaCi-2 (fluconazole-resistant clinical isolate) + fluconazole, Alamar Blue growth, 48 h | growth inhibition, % (no concentration beside the values) | 300,000 tested, 0.57% active | AID 1979;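 active means most replicates above 75%; inconclusive means exactly half above 75%; inactive means most below 75%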;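 further: all wells also contain fluconazole at 8 µg/ml as a sub-toxic cotreatment; 0% = median of DMSO wells and 100% = median of geldanamycin control wells; wells of about 8 µL received 7.5 nL stock; the first replicate is given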
rRNA inh HTS OD600: recorded beside rRNA inh HTS, whose call it bears; OD600 change, %; measured here: OD600 growth;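 optical density of the mix in the first replicate; 0 = DMSO median and -100 = no signal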
rRNA inh HTS RFP: further read-out of rRNA inh HTS, marked with its call; RFP signal change, %; measured here: RFP humanized mutant strains;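 first replicate; 0 = DMSO median and -100 = no signal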
Numbers without * were called inactive; ? = inconclusive; . = no result given; & = joins results of further samples. Only part of the results is shown; the hit share may differ from the screen's.

SMILES	Vif TR-FRET	T cruzi inh	AF4-AF9 inh	Bfl-1 A1 inh	RanGTP-Impb inh	Beta cell apopt	rRNA inh HTS	rRNA inh HTS OD600	rRNA inh HTS RFP	Calb FLC
O=C1OCCC1Sc1nc(-c2ccccc2)cs1 (centres undefined)	4%	-7	.	-3.1	3.4	.	.	.	.	-6
O=C(CC(c1ccccc1)c1cc(Cl)ccc1O)NCCCN1CCOCC1 (centres undefined)	.	-21	4.3	0.5	0.7	.	15	11	0.8	-4
C=C(C)[C@H]1CC=C(C)/C(=N/NC(=O)CNc2ccccc2OC)C1	-3%	4	5.0	0.1	6.2	-11	10	1	-2.9	2
CC(C)Nc1nc(SC(C)C(=O)Nc2ccccc2)nc(N(C)C)n1 (centres undefined)	12%	4	-19	0.1	-2.6	-4	-29	-41	-3.0	30
COc1ccc(N2CCN(S(=O)(=O)CCNC(=O)/C=C/c3ccccc3)CC2)cc1	5%	1	-0.7	0.0	6.8	-2	0	10	-2.8	-3
O=C(Cc1cccc2ccccc12)Nc1cc(C(=O)O)cc(C(=O)O)c1	.	4	-1.1	0.6	-1.2	2	7	7	7.9	9
CC1CC(C)CN(CCC(=O)Nc2cccc(Cl)c2)C1 (centres undefined)	?	4	.	1.3	9.3	-7	.	.	.	-16
CN(C)S(=O)(=O)c1cc(NC(=O)COC(=O)Cc2cccc3ccccc23)ccc1Cl	8%	4	-20	1.6	1.5	1	-16	-14	-12	-1
O=C(Nc1cccc2ccccc12)c1cccc([N+](=O)[O-])c1	-1%	-3	-2.3	0.0	1.9	.	10	6	-0.8	-9
CCn1c(SCC(=O)Nc2cc3oc4ccccc4c3cc2OC)nnc1-c1cccs1	-8%	26	.	1.8	3.5	-4	.	.	.	3
CCOc1ccc(S(=O)(=O)N2CCOCC2)cc1NC(=O)CSCC(=O)Nc1ccc(C)cc1	.	12	-0.4	1.5	0.0	-1	8	18	-1.3	5
C#Cc1ccc(C(=O)Nc2ccc(N3CCC(C)CC3)c(C(N)=O)c2)cc1	3%	27	-1.9	0.3	-0.6	-3	6	8	2.2	?
OCCN1CCN(C(=S)Nc2cccc(C(F)(F)F)c2)CC1	-13%&2%	-13	-1.1&1.0	-0.2	-2.1	-1	-60&-1	-79&-4	-21&5.1	-3
O=C(Cn1cccc1C(=O)c1ccccc1)NCCC1=CCCCC1	-5%	-7	-4.0	1.6	-1.3	-1	3	-3	-9.0	18
C/C(=N\NS(=O)(=O)c1ccc(C)c([N+](=O)[O-])c1)c1cc2ccccc2o1	8%	-17	.	0.5	?	3	.	.	.	28
COc1ccc(Cc2nc3ccc(C(=O)N(C)CCn4ccnc4)cc3o2)cc1OC	.	-14	4.7	-0.1	5.7	0	-6	5	-2.0	5
O=C(Cc1ccc(Cl)c(Cl)c1)Nc1ccc(SC(F)F)cc1	.	28	-2.9	0.1	.	-3	-47	-59	5.5	-11
CCC1(c2ccc(F)cc2)NC(=O)N(CC(=O)Nc2ccccc2C)C1=O (centres undefined)	1%	0	1.3	-0.3	1.1	.	1	-14	-3.8	1
CC(Oc1cccc(Cl)c1)C(=O)Nc1cc(Cl)ccc1N1CCOCC1 (centres undefined)	2%	41	-8.9	-0.6	-1.9	11	-1	-2	-0.9	-14
Cc1ccc(OCCCC(=O)Nc2ccc(S(=O)(=O)Nc3cc(C)nc(C)n3)cc2)cc1	.	-15	-6.1	-1.0	-1.0	0	-2	0	-1.1	12
Cc1ccc(OCC(=O)Nc2ccc(S(=O)(=O)Nc3onc(C)c3C)cc2)cc1	14%	-24	.	-0.2	?	-5	.	.	.	17
Cc1cc(C)n(C(=O)/C(C#N)=N/Nc2cc(Cl)cc(Cl)c2)n1	.	42	.	-0.4	12	27	.	.	.	-49
Clc1ccc2c(c1)nc1n2CCCC1	70%	0	0.5	0.8	0.1	3	1	-5	-0.7	2
COc1ccc(-c2ccc3nnc(SCC(=O)Nc4ccc(NC(C)=O)cc4)n3n2)cc1	-3%	-4	-1.0	0.0	4.1	.	10	9	-0.8	8
O=C(Nc1nncs1)C1CC(=O)N(CCc2ccc(F)cc2)C1 (centres undefined)	3%	-22	-13	0.1	4.2	-6	8	4	-1.8	-6
(listing goes on)
SMILES	Vif TR-FRET	T cruzi inh	AF4-AF9 inh	Bfl-1 A1 inh	RanGTP-Impb inh	Beta cell apopt	rRNA inh HTS	rRNA inh HTS OD600	rRNA inh HTS RFP	Calb FLC
CC1CCCC(NC(=O)C2c3ccccc3C(=O)N2Cc2cccs2)C1C (centres undefined)	-9%	2	-1.5	0.6	-3.6	-2	1	0	2.2	-4
O=S(=O)(Nc1ccccc1O)c1ccc(-c2ccccc2)cc1	.	-4	0.2	-0.3	-2.4	0	-57	-80	-20	8
CCCCOC(=O)/C=C/c1ccc(OC(=O)OC)c(OC(=O)OC)c1	.	-3	.	0.4	-3.7	-4	.	.	.	-29
Cc1ccc(-c2c3c(=O)n(C)c(=O)n(C)c3cn2N2CCOCC2)cc1	7%	-13	.	0.2	1.7	0	.	.	.	-5
CCC(CO)NCc1ccc2c(c1)n(C)c(=O)n2C (centres undefined)	8%	-16	.	0.6	-0.3	-1	.	.	.	-13
CC1CCN(S(=O)(=O)N2CCC(C(=O)NCc3cccs3)CC2)CC1	9%	2	1.8	0.2	-3.1	-4	-4	-4	-8.2	31
C/C=C/C(=O)Nc1nnc(-c2ccccc2C)s1	.	-41	-2.4	0.1	-4.7	0	11	11	2.0	-14
C=CCOc1ccccc1C1C2=C(CC(C)(C)CC2=O)Nc2c1c(=O)n(C)c(=O)n2C (centres undefined)	4%	5	.	0.3	1.9	4	.	.	.	-5
CCS(=O)(=O)c1nc(S(=O)(=O)c2ccc(C)cc2)c(N2CCN(CCO)CC2)s1	.	26	-0.7	0.5	0.9	-7	6	3	0.0	3
C[N+]1(C)CC2([N+](=O)[O-])CC=C(Oc3ccccc3)C([N+](=O)[O-])(C2)C1 (centres undefined)	.	-21	.	0.3	-1.2	-2	.	.	.	6
Cn1c(=O)c2c(nc(SCCN3CCCCC3)n2C)n(C)c1=O	26%	-9	-0.2	0.8	5.3	-2	13	21	-0.7	-10
Cn1nnnc1SCC(=O)c1ccc(Br)s1	30%	13	.	-0.8	4.5	-7	.	.	.	3
O=C(NCc1ccc(Cl)cc1)c1n[nH]c([N+](=O)[O-])c1Cl	-1%	2	-4.0	-3.6	.	-1	-15*	3.8*	2.3*	97*
COc1ccc(CC(=O)OCc2cc(=O)n3cc(Br)ccc3n2)cc1OC	1%	-8	0.9	0.5	3.6	-3	3	7	0.7	9
CCn1c(CSc2nc3ccccc3s2)nnc1SCC(=O)c1ccc(O)cc1O	12%	8	.	0.7	-4.5	6	-6	1	4.8	31
CCc1ccc(/C=C(\Cl)c2nc3cc(Cl)ccc3c(=O)[nH]2)cc1	.	-3	.	-0.2	5.4	2	.	.	.	-5
CC(C)Cn1c(N)c(/C=N/NC(=O)c2ccc(Cl)cc2)c(=O)n(C)c1=O	.	13	-0.6	0.0	-0.2	-4	5	13	-2.8	1
CNc1ccc(/C=C(\C#N)c2ccccn2)cc1[N+](=O)[O-]	-3%	-12	3.5	-3.9	-2.7	14	9	8	18	25
CC1CCN(c2ccc3nnc(CCC(=O)Nc4ccc(F)cc4)n3n2)CC1	-4%	-3	0.2	0.4	1.2	1	-10	-13	-0.1	-14
COC(=O)c1ccc([C@@H]2C[C@H]3CN(Cc4cccnc4)C(=O)[C@]34CCCN24)cc1	13%	-5	0.9	0.4	-0.9	-1	16	16	1.1	9
Cc1cccc2nc(-c3ccco3)oc(=O)c12	0%	-1	-1.1	-0.4	2.3	5	7	9	1.0	-11
CCOc1cc(CNc2ccc(N3CCCCC3)cc2)cc(Br)c1OCC(=O)NC(C)(C)C	19%	58*	.	0.4	5.3	.	.	.	.	-10
CCN(CC)c1ccc2c(c1)oc(=O)c1c(Cl)cc(=O)oc12	5%	-21	.	?	67*	37	.	.	.	11
CCc1nnc(NC(=O)CSc2nc3cccnc3n2C2CCCCC2)s1	-5%	11	.	0.2	0.4	-7	.	.	.	-1
COCCCNC(=O)Cn1nnc(-c2ccccc2NC(=O)c2ccccc2F)n1	.	-10	-22	0.1	6.0	-3	0	4	3.7	8
The listing continues.
SMILES	Vif TR-FRET	T cruzi inh	AF4-AF9 inh	Bfl-1 A1 inh	RanGTP-Impb inh	Beta cell apopt	rRNA inh HTS	rRNA inh HTS OD600	rRNA inh HTS RFP	Calb FLC
S=c1[nH]nc(-c2ccco2)n1-c1cccc2ccccc12	-2%	2	.	-1.4	?	0	.	.	.	8
Cc1cc[n+](-c2[nH]c(=O)sc2/C=N/N=C(\[O-])c2ccncc2)cc1	.	-12	-3.7	1.9	-6.4	-5	10	17	-0.3	10
O=C1CSC(c2cn(-c3ccccc3)nc2-c2cccs2)N1Cc1ccccc1 (centres undefined)	-3%	19	.	0.4	1.0	-6	.	.	.	-2
N#CCC(CNc1ncc(C(F)(F)F)cc1Cl)OC(=O)c1cccc([N+](=O)[O-])c1 (centres undefined)	5%	-1	.	0.1	-3.8	-2	.	.	.	17
Cc1cccc(NCCC#N)c1	.	-14	.	1.2	-0.4	.	.	.	.	-11
CC(C)(C)NC(=O)/C(=C\c1ccc(Br)cc1)NC(=O)c1cccs1	0%&5%	9	.	0.5	6.5	.	.	.	.	3
Cc1ccc2c(CC(=O)NCC(=O)Nc3c(C)cccc3C)coc2c1	10%	2	-1.7	-0.1	1.9	-3	8	-3	1.4	.
CCOc1ccc(Nc2nnc(SCc3nc4ccccc4c(=O)[nH]3)s2)cc1	?	-4	.	-0.3	?	16	-8	2	3.8	19
CCCNC(=O)CN1C(=O)c2ccccc2Sc2ncccc21	2%	-5	-1.3	0.3	-1.0	-2	13	14	-0.4	-3
COc1c(C)cc(C(=O)C2CCCN(C(=O)C3=C(C)OCCO3)C2)cc1C (centres undefined)	-2%	11	-2.3	0.5	0.1	-3	2	1	-0.9	7
CCCc1nc2sc3c(=O)[nH]cnc3c2c2c1CCCC2	1%	3	2.7	0.9	2.8	-7	5	13	-5.3	7
O=C(O)C(=O)Nc1nc(-c2ccc3c(c2)OCCO3)cs1	.	9	0.3	0.7	1.1	-10	10	12	-0.3	-1
CCOC(=O)C1=C(C)Nc2ccccc2N=C1NC(=O)C1CCN(C(=O)c2ccccc2C)CC1	-2%	.	-0.5	1.0	.	-2	-3	-11	-2.0	.
COc1ccc(NC(=S)NCc2cccnc2)cc1	-3%	-11	-8.4	-0.4	-0.1	.	-4	8	2.6	-9
C[C@]12CCC3c4ccc(O)cc4CCC3C1CC/C2=N\N (some centres undefined)	.	27	0.0	-0.2	1.7	-16	3	8	5.2	1
COc1ccccc1/C=C/C(=O)OCC(=O)NC(=O)NC1CCCC1	-2%	.	2.5	0.8	.	-7	-38	-55	-6.7	.
